Screening results as filed in PubChem BioAssay.
Marburg entry inh: Marburg virus entry inhibition. Marburg virus pseudotyped entry inhibition, cell reporter; control for the full effect not named in the record; about a third of the inactives were read at about 46 µM. Potency, µM (top dose mostly 37.8 µM), without a hit: at the highest dose activity change, negative = inhibition, usual class: inhibitors. 300,000 compounds, 1.8% hits; active = well fitted inhibition curve with a large enough effect; inconclusive = small, poorly fitted or top-dose-only effect, or effect the other way; inactive = flat fitted curve, though single readings scatter; tested in HEK293 cells; about a fifth of its hits are not listed in these tables; further: on the % scale 0 is the no-effect control and ±100 the full control effect; luciferase read-out
SARS PLpro yeast: SARS-CoV PLP inhibition in yeast; Potency, µM (highest dose often 32.9 µM), inactives show top-dose activity, positive = growth rescue; S. cerevisiae expressing SARS-CoV PLpro, growth rescue; control for the full effect not named in the record; 330,000 compounds, 0.19% hits; active means well fitted rising curve with a large enough effect; inconclusive means small, poorly fitted or top-dose-only effect; inactive means no such curve, though single readings can be large or run the other way; further: 0% is about no effect; nearly all actives have a fitted effect of over 55% in size; growth read by luminescence after 48 h
Cruzain Triton: inhibitors of Trypanosoma cruzi cruzain with detergent | AID 1478 | 200,000 compounds, 0.43% hits | Potency, µM, for the others: max response, negative = inhibition, hits mostly inhibitors | purified cruzain, Z-FR-AMC fluorescence, 0.01% Triton;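 further: plate controls were neutral wells for no effect and buffer without enzyme for full effect; nearly all actives have a fitted effect of over 40% in size; top concentration of the series not given in the record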
Target sequence (P25779 123-467 limits assumed): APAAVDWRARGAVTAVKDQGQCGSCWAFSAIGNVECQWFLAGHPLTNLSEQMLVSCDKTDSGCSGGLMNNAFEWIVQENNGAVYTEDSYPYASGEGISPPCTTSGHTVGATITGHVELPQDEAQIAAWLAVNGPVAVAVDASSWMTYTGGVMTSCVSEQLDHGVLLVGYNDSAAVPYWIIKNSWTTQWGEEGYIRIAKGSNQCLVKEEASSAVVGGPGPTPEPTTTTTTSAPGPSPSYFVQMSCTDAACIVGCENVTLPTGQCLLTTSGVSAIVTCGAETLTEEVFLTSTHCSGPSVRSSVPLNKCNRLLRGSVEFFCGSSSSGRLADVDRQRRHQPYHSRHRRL
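Enzyme 1.5 nM, Z-FR-AMC 2 uM, NaOAc 100 mM pH 5.5, DTT 5 mM, Triton X-100 0.01%; 15 min RT compound preincubation; kinetic ex360/em450, 60 s delta.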
Cruzain noTriton: blocks cruzain activity in detergent-free assay | P25779 | 200,000 compounds, 2.3% hits | AID 1476 | Potency, µM, for the others: max response, negative = inhibition, most hits filed as inhibitors | purified cruzain, Z-FR-AMC fluorescence, no detergent;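 further: plate controls were enzyme without inhibitor for no effect and buffer without enzyme for full effect; nearly all actives have a fitted effect of over 40% in size; top concentration of the series not given in the record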
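Purified cruzain at 1.5 nM, pre-incubated 15 min with compound at room temperature in 100 mM sodium acetate pH 5.5, 5 mM DTT, 0.00005% Triton X-100. Reaction started with 2 uM Z-FR-AMC; AMC fluorescence increase over 60 s gives rate.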
StopGo reporter: lowers the luciferase signal of an FMDV 2A StopGo reporter | human cells with a luciferase reporter of 2A StopGo recoding; control for the full effect not named in the record | Potency, µM (series often up to 57.9 µM), for the others: top-dose signal change, negative = less light | AID 1159524 | 410,000 compounds, 1.2% hits; active = well fitted falling curve with a large enough effect; inconclusive = small, poorly fitted or top-dose-only effect; inactive = no such curve, though single readings can be large or run the other way; tested in HEK293T cells; further: on the % scale 0 is the no-effect control and ±100 the full control effect; nearly all actives have a fitted effect of over 45% in size; luciferase light after 4 h
LASV entry inh: blocks Lassa virus binding to or entry into cells; Potency, µM (series often up to 37.9 µM), without a hit: at the top dose activity change, negative = inhibition, hits mostly inhibitors; Lassa virus pseudotype entry inhibition, cell reporter; control for the full effect not named in the record; 300,000 compounds, 1.2% hits; AID 540256; active means well fitted inhibition curve with a large enough effect; inconclusive means small, poorly fitted or top-dose-only effect, or effect the other way; inactive means flat fitted curve, though single readings scatter; tested in HEK293 cells; further: on the % scale 0 is the no-effect control and ±100 the full control effect; nearly all actives have a fitted effect of over 50% in size; luciferase read-out
* marks the source's active call; other numbers are inactive results; ? = inconclusive; · = no result given; & = joins results of further samples; [ ] = dose if it differs, or a comment. Unless noted, the call rests on the fitted dose curve; in most records, active means well fitted curve in the direction sought with a large enough effect; inconclusive means small, poorly fitted or top-dose-only effect, or another doubt; inactive means no such curve, though single readings can be large; an effect the other way counts as inactive or inconclusive. Potency means the concentration at half of the fitted maximal effect. Some of the compounds tested, so the mix of outcomes need not match the whole.

SMILES	Marburg entry inh	SARS PLpro yeast	Cruzain Triton	Cruzain noTriton	StopGo reporter	LASV entry inh
O=C(O)Cc1cc2ccccc2nc1C(=O)O	·	·	-2.4%	2%	-11%	·
N[C@@H](CCCP(=O)(O)O)C(=O)O	·	·	-3.3%	-1%	-14%	·
C=CC(C1=CC(=O)C(OC)=CC1=O)c1ccc(O)cc1 (configuration not stated)	·	·	-2.0%	-6%	13%	·
c1ccc(CCCCN2CCC(c3ccccc3)CC2)cc1	·	·	1.0%	-1%	0%&-13%	·
Cn1cc(-c2nc3cnc(Oc4ccccc4)nc3n(CCC#N)c2=O)c2ccccc21	·	·	3.8%	4%	5%	·
CN1CCN(c2ncncc2-c2cccnc2)CC1	·	·	0.6%	-5%	11%	·
COc1ccccc1-c1nc(N(C)Cc2ccco2)c2ccccc2n1	·	·	-6.6%	-11%	?	·
Cc1c(O)c(O)cc2c1CC=C1[C@]3(C)CC[C@]4(C)CC[C@@](C)(C(=O)O)CC4[C@]3(C)CC[C@]12C (some centres not stated)	·	·	-1.3%	-1%	25µM*	·
C[N+](C)(C)CC[N+]1(C)Cc2c(Cl)c(Cl)c(Cl)c(Cl)c2C1	·	·	-10%	0%	-14%	·
O=C(Nc1cccc(F)c1)N1CC[C@@]2(CCCN(C(=O)c3ccncc3)C2)C1	·	·	3.0%	-4%	-4%	·
COc1cccc(Nc2ncc3nc(-c4cccs4)c(=O)n(CCC#N)c3n2)c1	·	·	2.3%	-5%	7%	·
COc1ccc(C(=O)OC2CC3CC[C@H](C2)N3C(C)=O)cc1OC (some centres not stated)	·	·	-1.1%	0%	-13%	·
CN(CCc1ccc(Cl)c(Cl)c1)C[C@@H](O)COc1ccc(NS(C)(=O)=O)cc1	·	·	-4.2%	4%	-29%	·
CC(=O)OCC(=O)[C@@]1(O)CCC2C3CC(C)C4=CC(=O)C=CC4(C)C3C(O)CC21C (some centres not stated)	·	·	4.2%	30%	-12%	·
CN1CC[C@@]2(CCCN(C(=O)c3cccn3C)C2)C1	·	·	0.5%	-7%	-17%	·
CN1[C@@H]2CC[C@H]1CC(OC(=O)N1Cc3ccccc3NC1=O)C2 (some centres not stated)	·	·	1.6%	-1%	-23%	·
N#Cc1ccc(CN2CC[C@@]3(CCCN(C(=O)c4ccco4)C3)C2)cc1	·	·	2.3%	?	-4%	·
CN1CCN(c2ncc3nc(-c4ccccc4)c(=O)n(CCC#N)c3n2)CC1	·	·	?	?	-17%	·
O=C(c1ccco1)N1CCC2(CCN(Cc3nccs3)CC2)CC1	·	·	1.8%	1%	-6%	·
Cc1nc2cnc(N3CCOCC3)nc2n(C)c1=O	·	·	-1.6%	-6%	-20%	·
COCCn1c(=O)c(C)nc2cnc(N(C)C)nc21	·	·	-2.3%	-15%	-14%	·
O=c1c(-c2ccccc2)nc2cnc(Oc3ccccc3)nc2n1C1CC1	·	·	-10%	-4%	-11%	·
O=C(c1ccncc1)N1CCC2(CC1)CN(C(c1ccccc1)c1ccccc1)C2	·	·	-0.6%	-5%	-1%	·
COc1cccc(-c2cncnc2NCCc2cnc[nH]2)c1	·	·	-3.3%	2%	3%	·
COc1ccc(-c2nc3cnc(N4CCOCC4)nc3n(C)c2=O)cc1	·	·	-0.4%	?	2%	·

(further entries)
SMILES	Marburg entry inh	SARS PLpro yeast	Cruzain Triton	Cruzain noTriton	StopGo reporter	LASV entry inh
COc1ccccc1CN1CC[C@@]2(CCCN(C(=O)Oc3ccccc3)C2)C1	·	·	-4.5%	13%	-4%	·
Cc1ccc2c(c1)CC[C@H]1CC(=O)CC[C@@]21C	·	·	-1.3%	-13%	-13%	·
COCCNc1ncnc2ccc(-c3ccccc3CN(C)C)cc12	·	·	0.7%	-2%	-5%	·
CC(=O)OC1CC2C(C)(C)C(=O)C3OC3[C@]2(C)C2CC[C@@]3(C)C(c4ccoc4)OC(=O)C4OC43[C@]12C (some centres not stated)	·	·	-1.1%	19%	-11%	·
N#CCCn1c(=O)c(-c2cccs2)nc2cnc(Oc3cccc(Cl)c3)nc21	·	·	0.6%	-15%	-9%	·
COc1ccc2[nH]cc(CCNc3cc(-c4ccccc4C(F)(F)F)ncn3)c2c1	·	·	-4.8%	-9%	-11%	·
CC(C)=CCn1cnc2c1c(=O)n(C)c(=O)n2C	·	·	2.0%	-7%	-14%	·
Fc1ccc(Nc2ccnc(-c3ccc4c(c3)OCO4)n2)cc1	·	·	-9.7%	3%	16%	·
O=C(Nc1ccc(C(=O)Nc2ccc(C(=O)Nc3ccc(S(=O)(=O)O)c4cc(S(=O)(=O)O)cc(S(=O)(=O)O)c34)cc2)cc1)Nc1ccc(C(=O)Nc2ccc(C(=O)Nc3ccc(S(=O)(=O)O)c4cc(S(=O)(=O)O)cc(S(=O)(=O)O)c34)cc2)cc1	·	·	-3.2%	-5%	-7%&4%	·
FC(F)(F)c1ccccc1-c1nc(N2CCNCC2)c2ccccc2n1	·	·	3.1%	5%	-2%	·
CC[C@@H](C(N)=O)N1CCCC1=O	9%&9%	-5%	·	·	·	15%
C=CCSc1nnc(-c2cccc3ccccc23)o1	·	?	·	·	-8%	·
CCOP(=O)(OCC)c1ccc2ccc3ccccc3c(=O)c2c1	·	-1%	·	·	-23%	·
CC(=O)NC(c1cccs1)c1cc(Br)c2cccnc2c1O (configuration not stated)	·	-1%	·	·	-20%	·
O=S(=O)(NC1CCC(NS(=O)(=O)c2c(F)cccc2F)CC1)c1ccc2c(c1)OCCO2 (configuration not stated)	·	0%	·	·	24%	·
O=C1[C@H](CC[C@H](O)c2ccc(F)cc2)[C@@H](c2ccc(O)cc2)N1c1ccc(F)cc1	·	-3%	·	·	4%	·
Cc1csc(CNc2ncnc3ccc(-c4ccc5c(c4)OCO5)cc23)c1	·	5%&-1%	·	·	?	·
Cn1nnnc1Sc1ncnc2scc(-c3ccccc3Cl)c12	·	3%	·	·	-10%	·
Cn1nnc2c(C(N)=O)ncn2c1=O	·	1%	·	·	-8%	·
CN(Cc1ccco1)c1ncnc2ccc(-c3ccc4c(ccn4C)c3)cc12	·	-22%&6%	·	·	-27%	·
Oc1cc(Nc2ccncc2)cc2cccnc12	·	-3%&-1%	·	·	-18%	·
CCn1cnc2c(NCCc3cccnc3)nc(C#N)nc21	·	6%	·	·	2%	·
O=S(=O)(NC1CCN(S(=O)(=O)c2ccc3c(c2)OCCO3)C1)c1c(F)cccc1F (configuration not stated)	·	-19%	·	·	39%[activator]	·
C=CCNc1oc(-c2ccc(Cl)cc2)nc1C#N	·	?	·	·	-18%	·
CC(=O)NC(C)c1cc(Cl)c2cccnc2c1O (configuration not stated)	·	?	·	·	-19%	·

Random excerpt: 2 records from the list, in no set order.
SMILES	Marburg entry inh	SARS PLpro yeast	Cruzain Triton	Cruzain noTriton	StopGo reporter	LASV entry inh
Cc1csc(CNc2ncnc3ccc(-c4ccc5c(c4)OCO5)cc23)c1	·	5%&-1%	·	·	?	·
CN(Cc1ccco1)c1ncnc2ccc(-c3ccc4c(ccn4C)c3)cc12	·	-22%&6%	·	·	-27%	·

Gathered by group, the compounds so far with a COOH group.
SMILES	Marburg entry inh	SARS PLpro yeast	Cruzain Triton	Cruzain noTriton	StopGo reporter	LASV entry inh
O=C(O)Cc1cc2ccccc2nc1C(=O)O	·	·	-2.4%	2%	-11%	·
N[C@@H](CCCP(=O)(O)O)C(=O)O	·	·	-3.3%	-1%	-14%	·
Cc1c(O)c(O)cc2c1CC=C1[C@]3(C)CC[C@]4(C)CC[C@@](C)(C(=O)O)CC4[C@]3(C)CC[C@]12C (some centres not stated)	·	·	-1.3%	-1%	25µM*	·

The listing continues:
SMILES	Marburg entry inh	SARS PLpro yeast	Cruzain Triton	Cruzain noTriton	StopGo reporter	LASV entry inh
C[C@H]1CN(S(=O)(=O)c2c(F)cccc2F)CCN1S(=O)(=O)c1ccc2c(c1)OCCO2	·	5%	·	·	?	·
Cc1nc(SCc2nc3cc(Cl)c(F)cc3[nH]2)c2oc3ccccc3c2n1	·	9%	·	·	?	·
c1csc(CNc2ncnc3ccc(-c4ccc5c(c4)OCCO5)cc23)c1	·	-13%&1%	·	·	-8%	·
O=C1c2ccccc2NC(c2ccc(-c3ccccc3F)o2)N1O (configuration not stated)	·	-1%	·	·	14%	·
Cc1csc(CNc2ncnc3ccc(-c4cccc(Cl)c4)cc23)c1	·	-23%&5%	·	·	-30%	·
O=S(=O)(NCC1CN(S(=O)(=O)c2c(F)cccc2F)C1)c1ccc2c(c1)OCCO2	·	-8%	·	·	10%	·
O=c1c2ccccc2ccc2ccc(P(=O)(O)O)cc12	·	-2%	·	·	-18%	·
COc1ccccc1-c1csc2ncnc(Sc3nnnn3C)c12	·	-1%	·	·	?	·
CC(C)[C@]12O[C@H]1[C@@H]1O[C@]13[C@]1(O[C@H]1C[C@H]1C4=C(CC[C@@]13C)C(=O)OC4)[C@@H]2O	·	5%	·	·	10%	·
CC(=O)NC(c1cccs1)c1cc(Cl)c2ccccc2c1O (configuration not stated)	·	2%	·	·	-19%	·
CCC(=O)NC(c1cc(Cl)c2ccccc2c1O)C(C)C (configuration not stated)	·	1%	·	·	0%	·
COc1ccc(C2=Nn3c(nnc3-c3ccccc3Cl)SC2)cc1OC1CCOC1 (configuration not stated)	·	5%	·	·	33%[activator]	·
O=C1c2ccccc2NC(c2ccc(-c3ccc(F)cc3)o2)N1O (configuration not stated)	·	8%	·	·	7%	·
O=C1c2ccccc2NC(c2ccc(-c3cccs3)o2)N1O (configuration not stated)	·	-1%	·	·	20%	·
c1cncc(CNc2ncnc3ccc(-c4ccc5c(c4)OCCO5)cc23)c1	·	6%&-17%	·	·	-12%	·
O=C(Cc1ccccc1)Nc1ncnc2c1C(c1ccccc1)c1c(ccc3ccccc13)O2 (configuration not stated)	·	4%	·	·	?	·
Cc1nc(SCc2nc3c(F)cccc3[nH]2)c2oc3ccccc3c2n1	·	0%	·	·	-9%	·
Cn1nnnc1Sc1ncnc2scc(-c3ccc(C#N)cc3)c12	·	4%	·	·	28µM*	·
c1cncc(-c2ccc3ncnc(NCc4ccc5c(c4)OCO5)c3c2)c1	·	4%	·	·	-16%	·

Compounds shown so far with an NH in an aromatic ring (4):
SMILES	Marburg entry inh	SARS PLpro yeast	Cruzain Triton	Cruzain noTriton	StopGo reporter	LASV entry inh
COc1cccc(-c2cncnc2NCCc2cnc[nH]2)c1	·	·	-3.3%	2%	3%	·
COc1ccc2[nH]cc(CCNc3cc(-c4ccccc4C(F)(F)F)ncn3)c2c1	·	·	-4.8%	-9%	-11%	·
Cc1nc(SCc2nc3cc(Cl)c(F)cc3[nH]2)c2oc3ccccc3c2n1	·	9%	·	·	?	·
Cc1nc(SCc2nc3c(F)cccc3[nH]2)c2oc3ccccc3c2n1	·	0%	·	·	-9%	·
